A488 autofl: qHTS Assay for Spectroscopic Profiling in A488 Spectral Region; AID 591, 2007; 0.1% of 59,000 active; max dye equivalency, M; compound autofluorescence, A488 spectral region, dye equivalency; stronger effect = higher value; active = above 10 nM dye equivalent; inconclusive = 1 to 10 nM; inactive = 1 nM or less; about half of its hits are not listed in these tables;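 note: highest value over a series up to 38 µM; compound alone in buffer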
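Intrinsic compound fluorescence is measured in 100 mM Tris buffer at pH 8.0 following 15 min incubation at room temperature. Intensities at 480 nm excitation/540 nm emission are calibrated to an on-plate A488 concentration series, giving dye-equivalent concentrations.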
Resorufin autofl: qHTS Assay for Spectroscopic Profiling in Resorufin Spectral Region; 0.04% of 59,000 active; AID 588, 2007; Compound fluorescence, resorufin region 547/598 nm, buffer; stronger effect = higher value; max dye-equivalent concentration, M; active = above 10 nM dye equivalent; inconclusive = 1 to 10 nM; inactive = 1 nM or less; a few of its hits are not listed in these tables; note: highest value over a series up to 38 µM
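Intrinsic fluorescence profiled in the resorufin window (ex 547 nm, em 598 nm) after 15 min at room temperature in pH 8.0 Tris buffer (100 mM); responses normalized against a six-point resorufin standard series as dye-equivalent concentration.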
AID923: qHTS Assay for Allosteric/Competitive Inhibitors of Caspase-1: Spectroscopic Profiling in AFC Spectral Region | Potency, µM (top dose mostly 57.5 µM), inactives show at the top dose fluorescence increase, actives largely listed as activators | 1.1% of 75,000 active | AID 923, 2007 | compound fluorescence, AFC spectral region (405/520 nm); almost no hit is shown here; active = well fitted activation curve with a large enough effect; inconclusive = small, poorly fitted or top-dose-only effect;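 note: potency is the fitted concentration of half-maximal effect; 0% is about no effect; scaled to a free AFC standard on each plate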
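Compound autofluorescence profiled at 405 nm ex/520 nm em during kinetic caspase 1 run (50 nM enzyme, 5 uM Ac-WEHD-AFC, HEPES pH 7.5, 10 mM DTT). Titration up to 57 uM; baseline from regression intercept, normalized to AFC standard curve.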
TSHR agonist: qHTS Assay for Agonists of the Thyroid Stimulating Hormone Receptor. Potency, µM (series often up to 57.1 µM), for inactives: top-dose activation, actives largely listed as activators. HEK293-CNG-TSHR cells (CNG channel as cAMP sensor), membrane potential dye, cAMP. 0.48% of 73,000 active. Thyrotropin receptor (Homo sapiens), P16473; active = well fitted activation curve of enough size with the parental cells flat; inconclusive = any curve in the parental cells; inactive = parental cells flat and receptor cells flat or falling; note: potency is the fitted concentration of half-maximal effect; % of control where 0% means no effect; weak receptor curves with flat parental cells got no call and are not listed
Target sequence (P16473 whole entry, looked up): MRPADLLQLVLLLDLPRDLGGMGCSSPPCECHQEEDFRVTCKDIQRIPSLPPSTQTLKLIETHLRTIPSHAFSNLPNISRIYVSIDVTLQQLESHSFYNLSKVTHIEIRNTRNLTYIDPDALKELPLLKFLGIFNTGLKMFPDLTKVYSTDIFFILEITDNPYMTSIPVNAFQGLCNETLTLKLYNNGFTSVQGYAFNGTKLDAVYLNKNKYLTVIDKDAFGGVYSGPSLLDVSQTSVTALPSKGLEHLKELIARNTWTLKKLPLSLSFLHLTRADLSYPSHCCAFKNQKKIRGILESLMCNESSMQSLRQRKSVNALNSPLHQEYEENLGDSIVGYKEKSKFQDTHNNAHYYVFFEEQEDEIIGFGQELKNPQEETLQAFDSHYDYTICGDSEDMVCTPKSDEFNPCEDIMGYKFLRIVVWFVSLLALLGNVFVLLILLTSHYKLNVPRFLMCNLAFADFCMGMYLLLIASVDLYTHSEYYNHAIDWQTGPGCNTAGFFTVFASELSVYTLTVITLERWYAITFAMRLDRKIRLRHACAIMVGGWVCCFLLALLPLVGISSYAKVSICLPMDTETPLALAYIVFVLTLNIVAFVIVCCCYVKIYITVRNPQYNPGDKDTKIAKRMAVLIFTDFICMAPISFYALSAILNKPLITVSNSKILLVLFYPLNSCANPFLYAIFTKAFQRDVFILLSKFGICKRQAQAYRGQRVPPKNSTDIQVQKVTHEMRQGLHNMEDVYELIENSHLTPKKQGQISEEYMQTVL
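cAMP rise detected as CNG-channel membrane depolarization by fluorescent dye (emission 590 nm), 30 min after compound, following 60 min dye loading containing 100 uM RO 20-1724 at room temperature. Cells: TSHR/CNG HEK 293, with parental CNG HEK 293 as control.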
A647 fluor: qHTS Assay for Spectroscopic Profiling in A647 Spectral Region; 59,000 tested, under 10 active; max dye-equivalent concentration, M; Compound fluorescence, A647 channel (570/671 nm), Tris buffer; active means above 1 µM dye equivalent; inconclusive means 0.1 to 1 µM; inactive means 0.1 µM or less;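 note: values scaled relative to a standard on each plate; highest value over a series up to 38 µM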
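Each compound's intrinsic fluorescence at 570 nm excitation and 671 nm emission is measured across its concentration series in 100 mM Tris, pH 8.0, after 15 min at room temperature, and reported relative to an A647 curve.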
Numbers without * were called inactive; i = inactive; u = inconclusive; x = no result given; [ ] = dose if it differs, or a comment. Not all compounds are listed; the hit share may differ from the screen's.

SMILES | A488 autofl | Resorufin autofl | AID923 | TSHR agonist | A647 fluor
O=C(Sc1nnnn1C1CCCCC1)c1cccs1 | i | i | -1.2% | 3% | 3e-08
O=C(OCCN1C(=O)c2ccccc2C1=O)c1cccc(OC(F)F)c1 | i | i | -2.0% | 12% | 1.7e-09
COc1ccc(-c2ccc(=O)n(CC(=O)Nc3cccc(O)c3)n2)cc1OC | i | i | 2.7% | 4% | 4.1e-08
CC(C)Cc1nc(SCC(=O)NCc2ccccc2)n[nH]1 | i | i | -0.1% | 4% | 2.6e-08
COc1ccc(C(=O)CSc2ncn[nH]2)cc1OC | x | x | 1.4% | u | x
COc1ccc(C2N(c3cc(Cl)ccc3OC)C(=O)C3CCCN32)c(OC)c1 (stereo not given) | x | x | -1.7% | 7% | x
COCCn1nnnc1CN1CCOCC1 | i | i | 0.3% | -1% | 1e-09
Cc1cccc(C(CC(=O)N2CCCC2)c2ccccc2)c1O (stereo not given) | i | i | 1.7% | 4% | 5.8e-09
Cc1cc(C)nc(Nc2ccc(N3CCCC3)cc2)n1 | i | i | -2.1% | -5% | 1e-09
CCOc1ccc(C(C)=O)cc1CSc1nnc(-c2ccoc2C)n1N | i | i | 0.2% | 9% | 7.5e-09
CCC1(C)Cc2c(sc(NC(=O)CCC(=O)O)c2C#N)CO1 (stereo not given) | i | i | x | x | 4.4e-09
CCOC(=O)N1CCc2c(sc3c2C(=O)NC(c2ccccc2)N3)C1 (stereo not given) | i | i | 8.1% | u | 1e-09
CCCCCOC(=O)C1[C@H]2C(=O)N(CCCOC)C[C@]23C=C[C@H]1O3 (stereo not given in full) | i | i | -0.9% | x | 7.5e-09
CCN1CCCC1CNC(=O)c1nn(-c2ccc(C)cc2)c(=O)c2c1c1ccccc1n2C (stereo not given) | i | i | 2.8% | u | 3.7e-08
O=C(O)c1cccc(CN2C(=O)CSC2=O)c1 | x | x | 0.4% | 7% | x
CC(C)CN(C(=O)c1ccc(=O)n(C)n1)c1nc2ccccc2s1 | i | i | 1.1% | 12% | 3.7e-08
Cc1nccc2[nH]c(=O)c(C(=O)NC3CCN(Cc4ccccc4)CC3)cc12 | x | x | -1.8% | 25% | x
O=C(/C=C/c1ccc(O)cc1)c1ccc(O)cc1O | x | x | -0.2%[11.5 µM] | -11%[11.4 µM] | x
Cc1cc(/C=N/n2cnnc2)c(C)n1-c1ccc2ncccc2c1 | x | x | -1.3% | u | x
COc1ccc(N2CCN(C(=O)CCN3C(=O)c4ccccc4S3(=O)=O)CC2)cc1 | i | i | -0.7% | 8% | 2.7e-09
CCOC(=O)C1CCCN(S(=O)(=O)c2cc(Br)cc3c2N(C(=O)C2CC2)CC3)C1 (stereo not given) | i | i | 1.3% | u | 5.5e-09
CCCCc1c(O)nc2n(c1=O)CCS2 | i | i | -1.9% | 2% | 1.2e-08
CCOC(=O)C1CCCN(c2c(NCCN(C)Cc3ccccc3)c(=O)c2=O)C1 (stereo not given) | x | x | 1.7% | 5% | x
CC(C)C(C)C | x | x | 5.4% | u | x
COc1cc2c(c(O)c1OC)C(=O)C(OC)CCC2 (stereo not given) | x | x | -0.4% | 4% | x
Cc1cccc2cc(CN(CC3CCCO3)C(=O)c3ccncc3)c(=O)[nH]c12 (stereo not given) | i | i | 0.0% | -3% | 3.7e-08
COc1nc(Nc2ccc(C(C)=O)cc2)nc(OC)n1 | x | x | 4.1% | -6% | x
O=C(OC1CCOC1=O)c1ccc(-c2nc3ccccc3s2)s1 (stereo not given) | i | i | 5.8% | -11% | 1e-09
CCC(=O)N1CCc2cc(S(=O)(=O)N3CCN(c4ccccn4)CC3)ccc21 | i | i | -0.9% | 27% | 1e-09
COCCCNC(=O)Cn1cc2c(n1)CCCCC2 | x | x | -1.1% | 3% | x

Looked up by structure from the entries so far, three records:
SMILES | A488 autofl | Resorufin autofl | AID923 | TSHR agonist | A647 fluor
O=C(/C=C/c1ccc(O)cc1)c1ccc(O)cc1O | x | x | -0.2%[11.5 µM] | -11%[11.4 µM] | x
CC(C)C(C)C | x | x | 5.4% | u | x
CC(C)CN(C(=O)c1ccc(=O)n(C)n1)c1nc2ccccc2s1 | i | i | 1.1% | 12% | 3.7e-08

Further results:
SMILES | A488 autofl | Resorufin autofl | AID923 | TSHR agonist | A647 fluor
Brc1ccc(-c2cnc3n2CCCC3)cc1 | i | i | x | x | 8.5e-08
Cc1oc(-c2ccc(Cl)cc2)nc1CN1CCCC(C(=O)NCc2ccco2)C1 (stereo not given) | i | i | -1.0% | u | 1e-09
CCCCN1CCCCC1C(=O)Nc1c(C)cc(C)cc1C (stereo not given) | i | i | -0.2% | u | 1e-09
CC(C)OC(=O)c1nnc(Cc2ccc(Cl)cc2)o1 | x | x | -0.1% | 2% | x
S=c1[nH]nc(COc2ccccc2)n1C1CCCCC1 | x | x | -0.8% | u | x
O=C(NCCc1ccccc1)c1c(O)c2cccc3c2n(c1=O)CC3 | i | i | 0.4% | 13% | 1e-09
COC(=O)Cc1ccc2c3ccccc3n(C)c2c1 | x | x | 3.7% | u | x
COc1ccc(NC(=O)N(CCCN(C)C)Cc2cc3cc(OC)ccc3[nH]c2=O)cc1 | i | i | 1.2% | 4%[11.4 µM] | 5.5e-09
COc1ccc(CCNC(=O)Cn2c(=O)n(Cc3ccco3)c(=O)c3ccc(Cl)cc32)cc1OC | i | i | 0.1% | u | 1e-09
O=C(NCCc1ccccc1)C1CCN(S(=O)(=O)c2cccs2)CC1 | i | i | -1.6% | 1% | 7e-09
CCC1S/C(=C(\C#N)C(N)=O)N(c2ccc(F)cc2)C1=O (stereo not given) | i | i | 3.2% | -12% | 1e-09
CC(C)N1CCN(c2ccc(OC[C@@H]3CO[C@@](Cn4cncn4)(c4ccc(Cl)cc4Cl)O3)cc2)CC1 | i | i | 0.7%[25.7 µM] | u | 1.4e-09
CN(C)C(=O)N1CCN(C(=O)N(C)C)CC1 | i | i | 0.5% | 2% | 1e-09
O=C(CN1CCOCC1)NCCNC(=O)CN1CCOCC1 | i | i | -1.0% | 0% | 1e-09
CC1CCCC(C)N1C(=O)Cn1c(SCC(=O)Nc2ccc3c(c2)OCO3)nc2ccccc21 (stereo not given) | i | i | -1.1% | u | 1.8e-09
CCOC(=O)CSc1ncnc2c1cnn2-c1ccccc1 | i | i | -0.7% | 19% | 2.4e-08
NC1(C(=O)OCc2ccccc2)CCCC1 | i | i | -1.4%[11.5 µM] | -3%[11.4 µM] | 4.3e-08
CCOc1cc(NC(=O)c2ccco2)c(OCC)cc1NC(=O)CCc1ccccc1OC | i | i | 4.6% | 12% | 7.9e-09
Cc1ccc(S(=O)(=O)Nc2cc(C(=O)O)ccc2N2CCCCC2)cc1 | i | i | -3.3% | 8% | 2.5e-08
O=Nc1c2nc3ccccc3n(O)c-2c2ccccc12 | i | i | 7.9% | -16% | 7.4e-09
Cc1ccc(S(=O)(=O)Cc2ccc(C(=O)N3CCN(c4ccccn4)CC3)o2)cc1 | x | x | 1.7% | u | x
CC1Cc2ccccc2N1C(=O)c1ccc2snnc2c1 (stereo not given) | x | x | 2.2% | 18% | x
CC1CCCCN1S(=O)(=O)c1coc(C(N)=O)c1 (stereo not given) | x | x | -2.4% | -4% | x
COc1cc(NC(=O)CCCC(=O)OCC(F)(F)C(F)F)nc(OC)n1 | x | x | 2.5% | 4% | x
CC[C@]1(O)C[C@@H]2CN(CCc3c([nH]c4ccccc34)[C@](C(=O)OC)(c3cc4c(cc3OC)N(C)[C@H]3[C@](O)(C(=O)OC)[C@@H](C(=O)OC)[C@@]5(CC)C=CCN6CC[C@@]43[C@@H]65)C2)C1 | x | x | 0.4% | 5% | x
S=c1[nH]nc(-c2ccccc2Cl)n1CC1CCCO1 (stereo not given) | i | i | 1.3% | 1% | 2.2e-08
CCOc1ccc(NC(=O)CCN2CCN(c3ccccc3)CC2)cc1 | x | x | 0.3% | 6% | x
Cc1noc(/C=C/N(C)C)c1S(=O)(=O)N1CCCC(C(=O)NCc2ccco2)C1 (stereo not given) | x | x | 1.7% | 19% | x
COC(=O)C1=C(C)NC(C)=C(C(=O)OC)C1c1cc2ccc(C)cc2[nH]c1=O | i | i | 1.6% | 16µM* | 8.9e-09
Nc1nc2c(cnn2CCc2ccccc2)c2nc(-c3ccco3)nn12 | x | x | -2.5% | 4% | x

Entries above containing an aryl thioether with sulfur outside any ring (5):
SMILES | A488 autofl | Resorufin autofl | AID923 | TSHR agonist | A647 fluor
CC(C)Cc1nc(SCC(=O)NCc2ccccc2)n[nH]1 | i | i | -0.1% | 4% | 2.6e-08
COc1ccc(C(=O)CSc2ncn[nH]2)cc1OC | x | x | 1.4% | u | x
CCOc1ccc(C(C)=O)cc1CSc1nnc(-c2ccoc2C)n1N | i | i | 0.2% | 9% | 7.5e-09
CC1CCCC(C)N1C(=O)Cn1c(SCC(=O)Nc2ccc3c(c2)OCO3)nc2ccccc21 (stereo not given) | i | i | -1.1% | u | 1.8e-09
CCOC(=O)CSc1ncnc2c1cnn2-c1ccccc1 | i | i | -0.7% | 19% | 2.4e-08

(cont.)
SMILES | A488 autofl | Resorufin autofl | AID923 | TSHR agonist | A647 fluor
CCOC(=O)c1ccc(NC(=O)CSc2nnc(C)n2-c2ccccc2)cc1 | i | i | -2.8% | 11% | 6.3e-09
Cc1ccc(-n2ncc3c(=O)n(CC(=O)NCC4CCCO4)cnc32)cc1 (stereo not given) | i | i | 0.2% | -5%[11.4 µM] | 1.3e-08
CN(Cc1nc(-c2ccncc2)no1)S(=O)(=O)c1ccc(Br)cc1 | i | i | -1.2% | u | 1e-09
CCN(CC)C(=O)C1CCCN(Cc2ccc(OC)c(C)c2C)C1 (stereo not given) | x | x | 0.7% | 17% | x
CCOC(=O)N1CCC(N2C(=O)c3cc(C(=O)NC4CCCCC4)ccc3C2O)CC1 (stereo not given) | x | x | -1.7% | 8% | x
O=C(Nc1ccc2nc(-c3ccc(Br)o3)[nH]c2c1)c1cccs1 | i | i | 0.9% | 14% | 6.6e-09
COc1cccc(CN2CCCN(S(=O)(=O)c3ccc(Br)cc3)CC2)c1 | i | i | 1.1% | u | 2.8e-08
CCCCOCCCNC(=O)N[C@@H](CC(C)C)C(=O)O | i | i | 0.8% | 2% | 1e-09
Cc1ccc(-n2c(N)c(C(N)=O)sc2=S)cc1 | i | i | x | x | 1.1e-09
O=C(NCc1ccccc1)c1n[nH]nc1-c1ccccc1O | i | i | -1.0% | 3% | 1.7e-08
CCCn1c(C)nc2c(N3CCC(N4CCN(C)CC4)CC3)nc(C)nc21 | x | x | 2.1% | 1% | x
COC(=O)C1=C(C)NC(C)=C(C(=O)OC)C1C(=O)OC1CCCCC1=O (stereo not given) | i | i | 5.9% | 25% | 3.8e-08
CCCC12CN3CC(C)(CN(C1)C3c1ccc3c(c1)OCO3)C2=O (stereo not given) | i | i | 0.4% | 8% | 2.4e-08
O=c1cc(-c2ccccc2)nc2nc(COc3ccccc3)[nH]n12 | i | i | -3.2% | 13% | 8.1e-08
Cc1cccc(CC2CC(=O)N(C3CCCCC3)C2=O)c1 (stereo not given) | i | i | 0.5% | 8% | 5.3e-09
CCOc1cc2c(C#N)c(N3CCOCC3)nc(N)c2c(N)n1 | i | i | 7.3% | -2% | 1e-09
CC1CN(C(=O)C(C)N2C(=O)c3ccccc3C2=O)CC(C)O1 (stereo not given) | i | i | -3.6% | 2% | 1e-09
CCO/C(C)=N/n1c2nc3ccccc3nc2c2c(=O)n(C3CCCC3)c(C)nc21 | i | i | 4.1% | -8% | 1.9e-08
[O-][N+](CCO)(CCO)c1ncnc2nc[nH]c12 | i | i | -1.0%[11.5 µM] | -2%[11.4 µM] | 6.6e-09
